# Source: PubChem (several laboratories)
# MT1-MMP act inh: MT1-MMP (human) activation inhibition; HT1080 RFP-PRO-GFP cells, GFP/RFP ratio fluorescence, overnight; percent of plate control window, DMSO zero; AID 651647; GFP/RFP ratio change, % at 20 µM; P50281; 0.061% of 360,000 active;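 active = GFP/RFP ratio change of at least 30% with cell ATP level not reduced by more than half and red fluorescence within 50% of control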; also: strong numbers were not always called active
#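 Compound: 20 µM single dose, 1% DMSO / System: HT1080 RFP-PRO-GFP cells / Controls: DMSO and RFP-L50D-GFP cell wells / Read-out basis: GFP/RFP fluorescence ratio / Schedule: overnight compound exposure at 37 °C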
# Env fusion inh: HIV envelope-mediated fusion inhibition; HeLa-JRFL Env/CEM21 cell fusion, luciferase; inhibition, % at 12.3 µM; 1.1% of 360,000 active;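 active = mean replicate inhibition score of at least 50 and every replicate individually at or above 50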;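 also: 0% = plate neutral controls and 100% = maraviroc near 300 nM; one replicate is shown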
# eIF4H inh: inhibitors of RNA binding by human eIF4H. 0.94% of 290,000 active. Q15056. inhibition, % at 35 µM. eIF4H fluorescence polarization binding assay;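 active = 50% or more with normal probe brightness, or confirmed in later tests; about a fifth of its hits are not listed in these tables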;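 also: calls also rest on retests at 20 µM and on dose response follow-up; 0% = protein and probe with vehicle and 100% = probe without protein; strong numbers were not always called active; many hits fall short of the cut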
# Rce1 inhib: blocks yeast Ras-converting enzyme; Q03530; yeast membranes, quenched prenylated peptide cleavage fluorescence; calls only; 0.27% of 290,000 active;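 active = fall in fluorescence gain of 50% or more versus controls, with final raw signal at or below 3038400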;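 also: plate controls were neutral control wells for no effect and wells lacking membranes for full effect; tested at 10 µM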
# Target sequence (Q03530 whole entry, looked up): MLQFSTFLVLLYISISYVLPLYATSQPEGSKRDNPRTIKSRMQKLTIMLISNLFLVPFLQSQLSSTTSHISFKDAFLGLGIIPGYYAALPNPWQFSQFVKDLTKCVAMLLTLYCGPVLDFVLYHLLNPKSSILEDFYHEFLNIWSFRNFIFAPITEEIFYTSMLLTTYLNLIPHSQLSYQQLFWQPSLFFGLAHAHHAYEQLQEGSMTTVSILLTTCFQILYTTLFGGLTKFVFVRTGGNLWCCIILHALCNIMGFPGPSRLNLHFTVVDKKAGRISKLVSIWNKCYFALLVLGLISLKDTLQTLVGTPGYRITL
# Yeast UUG start: yeast start codon fidelity modulation | 0.13% of 350,000 active | activity score, % at 18.7 µM | S. cerevisiae UUG-firefly luciferase reporter, luminescence/redox ratio | AID 602363;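 active = replicate mean at a twofold rise or more, about +100% in these data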;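 also: firefly luciferase made from a UUG start codon reports start codon fidelity; reporter light over untreated wells divided by growth signal over untreated wells; some hits fall short of that in this replicate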
# PABP polyA inh: blocks human PABP binding to poly(A) RNA. fluorescence polarization. inhibition, % at 35 µM. 1% of 290,000 active. AID 2014;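 active = 50% or more with normal probe brightness, or confirmed in later tests; about a fifth of its hits are not listed in these tables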;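 also: calls also rest on retests at 20 µM and on dose response follow-up; controls were probe without protein and protein plus probe with vehicle; some compounds called inactive have numbers as strong as hits; many hits fall short of the cut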
# Target sequence (P11940 whole entry, looked up): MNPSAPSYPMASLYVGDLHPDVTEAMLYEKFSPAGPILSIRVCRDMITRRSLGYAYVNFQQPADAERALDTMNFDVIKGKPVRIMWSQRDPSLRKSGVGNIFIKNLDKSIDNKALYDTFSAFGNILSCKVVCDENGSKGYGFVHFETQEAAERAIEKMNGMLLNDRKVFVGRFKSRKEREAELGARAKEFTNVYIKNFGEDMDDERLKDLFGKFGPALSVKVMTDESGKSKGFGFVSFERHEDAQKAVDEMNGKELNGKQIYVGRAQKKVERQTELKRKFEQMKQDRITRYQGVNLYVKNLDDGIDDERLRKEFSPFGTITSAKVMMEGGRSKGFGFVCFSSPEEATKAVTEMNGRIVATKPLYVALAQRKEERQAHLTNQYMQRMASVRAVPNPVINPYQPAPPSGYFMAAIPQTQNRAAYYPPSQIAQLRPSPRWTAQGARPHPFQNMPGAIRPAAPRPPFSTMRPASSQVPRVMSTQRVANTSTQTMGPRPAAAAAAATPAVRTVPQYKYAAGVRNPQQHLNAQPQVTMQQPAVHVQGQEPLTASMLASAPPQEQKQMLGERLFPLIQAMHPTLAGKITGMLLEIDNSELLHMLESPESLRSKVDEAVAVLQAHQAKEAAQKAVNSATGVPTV
# CSC inhib: blocks cancer stem cells; 1.1% of 300,000 active; cancer stem cell-like cells viability, luminescence; inhibition, % at 7.5 µM;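 active = mean at 75% or more and at least half the replicates too; tested in HMLE shEcad cells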;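 also: 0% = median of negative and 100% = median of positive control wells; the first replicate is given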
# MT1-MMP act inh RFP: further read-out of MT1-MMP act inh, marked with its call; RFP signal change, %; measured here: RFP expression control read;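 0 = vehicle wells; hits needed this value within 50% of zero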
# The depositor's hits bear a star; i = inactive; x = not tested or not shown; & = joins results of further samples. Not all compounds are listed; count on the stated rates, not on these rows.
SMILES,MT1-MMP act inh,MT1-MMP act inh RFP,Env fusion inh,eIF4H inh,Rce1 inhib,Yeast UUG start,PABP polyA inh,CSC inhib
COc1ccc(CCN=C(NS(=O)(=O)c2ccc(Cl)cc2)c2ccccc2)cc1,x,x,-3,-2,i,x,-4,-4
O=C(CC(=O)N/N=C/c1ccc(F)cc1)N/N=C/c1ccc(F)cc1,0,-3,-7,0,i,x,3,3
COc1ccc(CNC(=O)c2cn(Cc3ccc(OC(C)=O)cc3)c(=O)s2)cc1,2,-3,3,x,x,-25,x,x
CCN(CC(=O)Nc1ccc(NC(C)=O)cc1)CC(=O)Nc1ccc(Cl)c(Cl)c1,1,2,6,-2,i,-1,-5,-1
COc1ccccc1C1C(C#N)=C(N)Oc2cc(C)n(Cc3ccccn3)c(=O)c21 (configuration not stated),-6,0,-49,10,i,-20,19,-16
COc1ccc(OC(=O)CCc2c[nH]c3ccccc23)cc1,-1,-3,2,-1,i,x,1,10
C[C@H](CO)N1C[C@H](C)[C@H](CN(C)C(=O)Nc2ccccc2F)OCc2cnnn2CCCC1=O,3,8,-1,x,x,-15&-4,x,x
CCN(CC)C(=O)CNC(=S)N(CCCN1CCOCC1)Cc1cccs1,3,1,-21,5,i,-5,1,11
COc1ccc(CC(=O)Nc2cccc(-c3ccc4nncn4n3)c2)cc1OC,-1,-27,11,-15,i,x,-2,x
CCOC(=O)CNC(=O)CNC(=O)c1nn(-c2ccc(OC)c(Cl)c2)c(=O)c2ccccc12,-3,-7,18,0,i,x,-10,-1
NC(=O)CN1CCN(c2nc(-c3ccc(F)cc3)cs2)CC1,-8,-2,-48,-8,i,-12,-2,6
O=S(=O)(c1ccccc1Cl)N1CCC(O)(c2cccnc2)CC1,-4,-3,-5,-3,i,x,3,-18
O=C1c2ccccc2-c2nnc(-c3ccc(F)cc3)cc21,4,5,-30,-2,x,x,2,48
CN(C)S(=O)(=O)c1ccc(Cl)c(NC(=O)CN2C(=O)NC3(CCc4ccccc43)C2=O)c1 (configuration not stated),2,1,x,x,x,13,x,1
Oc1ccccc1Nc1nc(NCc2ccccc2)c2ccccc2n1,0,-12,9,-13,i,x,3,103*

# Entries of single compounds, looked up by structure. Order of screens: MT1-MMP act inh	MT1-MMP act inh RFP	Env fusion inh	eIF4H inh	Rce1 inhib	Yeast UUG start	PABP polyA inh	CSC inhib
# O=C(CC(=O)N/N=C/c1ccc(F)cc1)N/N=C/c1ccc(F)cc1 across the screens: 0	-3	-7	0	i	x	3	3
# COc1ccc(CC(=O)Nc2cccc(-c3ccc4nncn4n3)c2)cc1OC across the screens: -1	-27	11	-15	i	x	-2	x

# (further entries)
SMILES,MT1-MMP act inh,MT1-MMP act inh RFP,Env fusion inh,eIF4H inh,Rce1 inhib,Yeast UUG start,PABP polyA inh,CSC inhib
O=c1cc(-c2ccc(O)cc2)oc2ccc(O)cc12,0,-1,10,12,i,x,-5,16
COc1ccc(C(=O)NC(C(=O)NCC(=O)Nc2c(C)cccc2C)C(C)C)cc1 (configuration not stated),-14,-9,-10,-2,i,x,2,-2
COc1ccccc1NC(=O)Cc1cccs1,2,2,-26,0,i,-4,7,x
Cc1noc(NS(=O)(=O)c2ccc(N/C=C/C(=O)c3ccc4c(c3)OCO4)cc2)c1C,2,4,-12,6,i,-9,18,6
O=C(NC(Cc1ccccc1)C(=O)O)/C(=C/c1ccccc1)NC(=O)c1ccccc1 (configuration not stated),-1,4,-13,4,i,-25,3,11
CC(C)Oc1ccc(S(=O)(=O)N2CCOCC2)cc1NC(=O)CC1OC(=O)c2ccccc21 (configuration not stated),-1,-2,-10,x,x,-5,x,6
O=C1CN(C(=O)COC(=O)COc2ccccc2)c2ccccc2N1,-1,4,-1,x,x,19,x,9
Cc1nc2ccc(NC(=O)c3cc(Cl)ccn3)cc2s1,-6,2,-121,3,i,-26,9,6
CN(CC(=O)Nc1ccc(F)c(F)c1F)C(=O)/C=C/c1ccco1,-1,-2,-10,x,x,-6,x,-15
N/C(=N\OC(=O)/C=C/c1ccccc1Cl)c1ccncc1,-1,3,-124,-7,i,x,-12,x
CCOC(=O)C1=NNC(C(=O)c2ccc(OC)cc2)C1c1ccccc1 (configuration not stated),0,0,x,-13,i,-13,5,-6
C[C@H](CO)N1C[C@H](C)[C@@H](CN(C)S(=O)(=O)c2ccccc2)Oc2c(NS(=O)(=O)c3cccs3)cccc2C1=O,2,3,-24,x,x,8&6,x,-7
CCCN1CCN(CCCNC(=O)c2ccc3nc(N4CCCCC4)sc3c2)CC1,3,7,-60,-6,i,-7,-6,-13
Nc1nc(-c2cccnc2)nn1C(=O)COc1ccccc1,2,0,-38,3,i,-11,9,2
Cc1cc(NC(=O)CN2C(=O)NC(CC(C)C)C2=O)no1 (configuration not stated),0,1,x,x,x,-12,x,-1
CCN(c1ccc(NC(=O)CSc2nnc3nc(C)cc(C)n23)cc1)C(C)C,2,2,x,-4,i,1,3,-11
CC(C)(C)n1nc2c(c1NC(=O)c1cccs1)CS(=O)C2 (configuration not stated),-14,-2,x,0,i,7,-4,-8
N#C/C(=C\c1cn[nH]c1-c1ccc(Cl)cc1)C(=O)NC1CC1,3,-5,x,-3,i,x,5,-4
Cc1ccc2cc(CN(CC3CCCO3)C(=O)c3cccs3)c(=O)[nH]c2c1 (configuration not stated),2,1,-6,6,i,-6,1,-2
CC(Sc1nnc(Cc2cccs2)n1C1CCCCC1)C(=O)NCc1ccco1 (configuration not stated),0,2,x,4,i,x,-1,19
O=C(O)c1ccc(/C=C2/SC(=S)N(Cc3ccccc3)C2=O)cc1,2,1,1,-1,i,-19,6,6
CCOC(Cn1cc(C)c(=O)[nH]c1=O)OCC,2,1,7,1,i,2,18,-3
CCCC(OC(=O)CN1C(=O)COc2ccccc21)C(=O)NC1CCCC1 (configuration not stated),4,-1,x,-6,i,-12,5,17
CC(=O)c1ccc(N2CCN(C(=O)c3ccc(OCc4c(C)noc4C)cc3)CC2)cc1,2,-5,-7,-3,i,-14,0,21
CCOc1ccc(NC(=S)Nc2cc(-c3ccccc3)[nH]n2)cc1,4,-1,3,7,i,-24,10,25
COc1cc(S(=O)(=O)N(C)C)ccc1F,1,-2,-24,5,i,-14,11,-3
COc1ccc(C2=NOC(C(=O)NCc3cccs3)C2)cc1OC (configuration not stated),x,x,-147,6,i,x,2,52
O=C(CS(=O)(=O)Cc1ccccc1)Nc1ncccn1,-4,1,x,-1,i,0,0,3
CC(C)Cc1nnc(NC(=O)CN2C(=O)C3CCCCC3C2=O)s1 (configuration not stated),0,0,-2,x,i,-17,x,-5
CSCCNC(=O)c1ccc(C(C)(C)C)cc1,-1,-1,-70,2,i,-41,4,1

# Part of the list above in order of length of the SMILES, high to low.
SMILES,MT1-MMP act inh,MT1-MMP act inh RFP,Env fusion inh,eIF4H inh,Rce1 inhib,Yeast UUG start,PABP polyA inh,CSC inhib
C[C@H](CO)N1C[C@H](C)[C@@H](CN(C)S(=O)(=O)c2ccccc2)Oc2c(NS(=O)(=O)c3cccs3)cccc2C1=O,2,3,-24,x,x,8&6,x,-7
CC(=O)c1ccc(N2CCN(C(=O)c3ccc(OCc4c(C)noc4C)cc3)CC2)cc1,2,-5,-7,-3,i,-14,0,21
Cc1ccc2cc(CN(CC3CCCO3)C(=O)c3cccs3)c(=O)[nH]c2c1 (configuration not stated),2,1,-6,6,i,-6,1,-2
CCN(c1ccc(NC(=O)CSc2nnc3nc(C)cc(C)n23)cc1)C(C)C,2,2,x,-4,i,1,3,-11
CCCN1CCN(CCCNC(=O)c2ccc3nc(N4CCCCC4)sc3c2)CC1,3,7,-60,-6,i,-7,-6,-13
CCCC(OC(=O)CN1C(=O)COc2ccccc21)C(=O)NC1CCCC1 (configuration not stated),4,-1,x,-6,i,-12,5,17
CCOC(=O)C1=NNC(C(=O)c2ccc(OC)cc2)C1c1ccccc1 (configuration not stated),0,0,x,-13,i,-13,5,-6
CC(C)Cc1nnc(NC(=O)CN2C(=O)C3CCCCC3C2=O)s1 (configuration not stated),0,0,-2,x,i,-17,x,-5
CC(C)(C)n1nc2c(c1NC(=O)c1cccs1)CS(=O)C2 (configuration not stated),-14,-2,x,0,i,7,-4,-8
COc1ccc(C2=NOC(C(=O)NCc3cccs3)C2)cc1OC (configuration not stated),x,x,-147,6,i,x,2,52
Nc1nc(-c2cccnc2)nn1C(=O)COc1ccccc1,2,0,-38,3,i,-11,9,2
O=C(CS(=O)(=O)Cc1ccccc1)Nc1ncccn1,-4,1,x,-1,i,0,0,3
CCOC(Cn1cc(C)c(=O)[nH]c1=O)OCC,2,1,7,1,i,2,18,-3
CSCCNC(=O)c1ccc(C(C)(C)C)cc1,-1,-1,-70,2,i,-41,4,1
COc1cc(S(=O)(=O)N(C)C)ccc1F,1,-2,-24,5,i,-14,11,-3

# Going on with the list.
SMILES,MT1-MMP act inh,MT1-MMP act inh RFP,Env fusion inh,eIF4H inh,Rce1 inhib,Yeast UUG start,PABP polyA inh,CSC inhib
O=[N+]([O-])c1ccccc1/C=C/C=N/N1CCCCC1,2,1,-63,-7,i,x,-9,2
O=C(Nc1cccc(Oc2ccccc2)c1)C1Cc2c(-c3cccc(F)c3)ccnc2O1 (configuration not stated),4,-2,-10,x,x,-21,x,x
CNC(=S)NNC(=O)COc1cccc(C)c1C,2,3,x,-9,i,-12,0,-4
O=C(O)CCC(=O)Nc1ccccc1C(=O)NC1CCCCC1,0,4,x,11,i,-11,-4,-7
CCn1c(SCC(=O)NCCc2ccccc2)nc2c(c1=O)SC(C)C2 (configuration not stated),1,1,-29,10,i,-5,14,9
O=C(c1ccccc1)n1ccc(-c2cnc(-c3ccccc3)s2)n1,0,-4,x,-10,i,x,2,-6
COc1ccc(NC(=O)CSc2nccn2Cc2ccco2)c(OC)c1,-2,3,17,-2,i,-8,6,-12
CN(C)C(CNC(=O)CCNC(=O)c1ccc(Cl)cc1)c1ccco1 (configuration not stated),4,1,x,x,i,0,x,-8
Cc1ccccc1CC1(CO)CCCN(C(=O)c2cc(Cl)ccc2F)C1 (configuration not stated),-4,-2,-14,1,i,x,18,-8
Cc1onc(-c2ccccc2Cl)c1C(=O)N1CCCCC1,-1,-1,7,3,i,x,7,-4
Cc1cccc(-c2noc(C(C)NC(=O)c3ccco3)n2)c1 (configuration not stated),-1,-4,-17,-4,i,-17,10,14
CC1CCCC(NC(=O)CSc2nncs2)C1C (configuration not stated),0,6,x,x,x,-16,x,3
COc1ccc(C(=O)NNC(=O)c2cc3cc(OC)ccc3oc2=O)cc1,10,-2,16,-1,i,-1,4,-2
Cc1ccc(S(=O)(=O)NC(C)C(c2cccs2)N2CCOCC2)cc1 (configuration not stated),2,3,27,1,i,-16,2,-12
CC(C)n1cc(/C(N)=N/O)c(=O)n(Cc2ccccc2)c1=O,-1,-1,-3,0,i,-10,-5,-17
O=C(COC(=O)c1cc([N+](=O)[O-])ccc1N1CCOCC1)NCc1ccc(F)cc1,-3,1,1,10,i,1,-10,14
